Screens: PubChem BioAssay, several laboratories
Bfl-1 A1 inh: inhibitors of the anti-apoptotic protein A1, read as caspase activation; AID 2462; caspase activation, % (test concentration not listed); 330,000 tested, 0.066% active; MEF A1-2A-BIM cells, Caspase-Glo 3/7 luminescence, 3 h; percent of clofoctol response, vehicle zero;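 active = over half of replicate activation scores above 10%, or exactly half above 10 with the replicate mean above 10; inconclusive = replicate mean below 10 yet half the replicates above 10; inactive = over half of replicates below 10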;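 also: wells of about 30 µL received 50 nL stock; many hits fall short of the cut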
LANA-H2A inh: blocks KSHV LANA binding to histone H2A/H2B. cell-free LANA-H2A/H2B peptide, fluorescence polarization. inhibition, % (no concentration beside the values). 320,000 tested, 0.6% active; in the data active = inhibition mostly above about 10%, no sharp cut-off; inactive = mostly below about 6.7%;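 also: stock transfer was 7.5 nL into about 10 µL; 0% = median of vehicle wells and 100% = median of positive control wells; one replicate is shown; the record names a cut of 25% in any replicate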
T cruzi repl: T. cruzi replication inhibition; AID 1885; inhibition, % (test concentration not listed); T. cruzi beta-gal in NIH3T3, luminescence, 90 h; 300,000 tested, 1.4% active;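 active = mean inhibition across valid replicates above about 55%, limit read from the data; inconclusive = mean below that limit but half or more replicates reach it; inactive = mean below it, under half of replicates reach it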;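 also: signal also drops with host cell toxicity which is not excluded here; 0% = plate median of DMSO wells and 100% = zero luminescence signal; higher percent means less beta-gal luminescence so fewer parasites; stock transfer was 50 nL into about 50 µL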
B2AR ag: activates human beta-2 adrenergic receptor causing internalization; AID 504454; 340,000 tested, 0.43% active; Am2.2-beta2AR cells, FAP receptor internalization, flow cytometry; reference of the scale not given here; response, % (test concentration not listed); P07550;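 active = response above a set limit, near 3 SD of response in nonfluorescent compounds, cut at about 42% in these data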;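 also: stock transfer was 100 nL into about 11 µL; a reference agonist was the positive control; negative values mostly stem from fluorescent compounds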
Target sequence (P07550 whole entry, looked up): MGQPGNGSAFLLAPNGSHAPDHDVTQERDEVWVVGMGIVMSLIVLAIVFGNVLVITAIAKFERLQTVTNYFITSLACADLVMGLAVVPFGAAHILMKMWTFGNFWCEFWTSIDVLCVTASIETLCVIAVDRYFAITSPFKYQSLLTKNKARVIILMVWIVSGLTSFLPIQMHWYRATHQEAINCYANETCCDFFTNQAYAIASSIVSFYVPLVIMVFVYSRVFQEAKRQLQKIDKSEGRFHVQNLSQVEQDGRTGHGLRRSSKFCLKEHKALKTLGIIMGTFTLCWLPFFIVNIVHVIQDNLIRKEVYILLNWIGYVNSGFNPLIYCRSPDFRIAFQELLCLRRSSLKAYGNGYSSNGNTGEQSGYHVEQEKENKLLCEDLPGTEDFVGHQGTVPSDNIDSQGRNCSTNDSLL
ALR inh: human ALR oxidase inhibition via reduced H2O2; purified ALR, DTT oxidation, H2O2 HRP-luminol luminescence; inhibition, % (concentration not given with the values); 290,000 tested, 3.8% active; AID 485317;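 active = mean and each replicate at 75% or more; inconclusive = only one of the two met; inactive = neither met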;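 also: stock transfer was 7.5 nL into about 7.5 µL; 0% = neutral wells and 100% = wells with inactivated enzyme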
Target sequence (P55789 whole entry, looked up): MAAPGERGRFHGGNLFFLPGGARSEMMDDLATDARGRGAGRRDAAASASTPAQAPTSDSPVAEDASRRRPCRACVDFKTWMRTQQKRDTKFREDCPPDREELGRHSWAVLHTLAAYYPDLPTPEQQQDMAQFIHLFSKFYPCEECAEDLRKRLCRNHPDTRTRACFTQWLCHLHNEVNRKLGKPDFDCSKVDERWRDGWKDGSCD
rRNA inh HTS: inhibits bacterial ribosomal RNA function over humanized ribosomes; E. coli WT GFP vs humanized-ribosome RFP mutants, fluorescence, 24 h; stronger effect = lower value; DMSO median 0, no signal -100; GFP signal change (wild-type ribosome), % (concentration not given with the values); 350,000 tested, 1.6% active;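 active = significant combined selectivity score with lowered wild-type GFP, culture density cut under 30%, mutant RFP and density less affected; inactive = any of these conditions unmet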; also: one replicate is shown; some compounds called inactive have numbers as strong as hits
Calb FLC: C. albicans growth modulation with fluconazole; AID 1979; growth inhibition, % (no concentration beside the values); 300,000 tested, 0.57% active; C. albicans CaCi-2 (fluconazole-resistant clinical isolate) + fluconazole, Alamar Blue growth, 48 h;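 active = most replicates above 75%; inconclusive = exactly half above 75%; inactive = most below 75%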;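 also: all wells also contain fluconazole at 8 µg/ml as a sub-toxic cotreatment; 0% = median of DMSO wells and 100% = median of geldanamycin control wells; wells of about 8 µL received 7.5 nL stock; the first replicate is given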
Beta cell apopt: beta cell apoptosis inhibition | INS-1E cytokine-induced death, ATP luminescence, 48 h; percent of positive-control rescue, neutral wells zero | protection from apoptosis, % (test concentration not listed) | 300,000 tested, 0.8% active | AID 435005;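 active = all replicates at 75% or more, or half of them and the mean; inconclusive = half reach 75% but not the mean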;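 also: 0% = cytokine-treated negative control wells and 100% = positive control rescue; higher means more ATP so stronger rescue from cytokine killing; wells of about 40 µL received 100 nL stock; the first replicate is given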
rRNA inh HTS OD600: second read-out of rRNA inh HTS, no call of its own (marks repeat the call); OD600 change, %; measured here: OD600 growth;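 optical density of the mix in the first replicate; 0 = DMSO median and -100 = no signal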
rRNA inh HTS RFP: second read-out of rRNA inh HTS, no call of its own (marks repeat the call); RFP signal change, %; measured here: RFP humanized mutant strains;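 first replicate; 0 = DMSO median and -100 = no signal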
Active calls of the source: *; ? = inconclusive; · = no result given. This is a subset (hit frequency here may not be typical).

Below each SMILES: Bfl-1 A1 inh	LANA-H2A inh	T cruzi repl	B2AR ag	ALR inh	rRNA inh HTS	rRNA inh HTS OD600	rRNA inh HTS RFP	Calb FLC	Beta cell apopt
[1] CC1CCc2cc(F)ccc2N1C(=O)c1ccncc1 (configuration not stated)
    2.4	-3.0	-1	-2	·	·	·	·	-16	-6
[2] COc1cc(NC(=O)COC(=O)CSc2ccccc2F)c(C)cc1[N+](=O)[O-]
    0.8	3.6	-21	-2	-17	0	-2	-2.5	-9	2
[3] Cc1ccc(NC(=O)C(=O)NCC2CCCN2S(=O)(=O)c2cccs2)cc1C (configuration not stated)
    -2.0	1.2	16	-1	4	-24	-22	-3.8	4	5
[4] COc1ccccc1C1/C(=C(/O)c2ccccc2)C(=O)C(=O)N1CC(C)C (configuration not stated)
    0.1	-0.5	-2	3	-6	·	·	·	7	-4
[5] COc1ccc(CNC(=O)CCC(=O)c2ccc(C)cc2)cc1OC
    -0.6	-2.2	-1	2	4	7	8	-3.8	0	-10
[6] O=C(c1ccc([N+](=O)[O-])o1)N1CCN(c2nc3ccc(F)cc3s2)CC1
    0.9	-0.2	28	5	-5	8	1	1.6	-1	6
[7] Cc1ccc(S(=O)(=O)NCC(=O)OCC(=O)NC2CCCCC2)cc1
    -1.2	1.4	·	-5	0	3	3	2.8	·	1
[8] C=CCNC(=O)/C=C/c1cccs1
    -0.9	4.9	-7	4	4	14	13	-3.7	7	-3
[9] CS/C(N)=N/N=C/c1c(O)ccc2ccccc12
    -1.1	2.4	-24	-5	·	-7	0	3.0	63	1
[10] Nn1c(SCC(=O)Nc2ccc3c(c2)OCO3)nnc1-c1cccc(Cl)c1
    0.3	-0.7	0	6	-6	9	15	11	1	1
[11] Cc1ccc(C)c(SCC(=O)NCc2ccco2)c1
    -0.4	-5.6	17	-13	-7	·	·	·	-1	-1
[12] CCCCC(C(=O)OCC(=O)c1ccc(OC)cc1)N1C(=O)c2ccccc2C1=O (configuration not stated)
    0.0	-1.3	5	-2	·	-10	-8	0.1	1	0
[13] COC(=O)c1ccc(OC(=O)c2cccnc2)cc1
    -0.3	0.1	-5	5	?	·	·	·	-6	-6
[14] Cc1c(NC(=O)CN2CCN(C(=O)c3ccco3)CC2)c(=O)n(-c2ccccc2)n1C
    -0.9	0.9	-4	7	-4	·	·	·	-6	0
[15] COC(CNC(=O)c1ccc2c(c1)nc(C)n2-c1cccc(C)c1)OC
    0.0	0.3	-22	-4	-4	11	1	1.4	1	-4
[16] O=[N+]([O-])c1ccc(Nc2nc(NC3CCCCC3)nc(N3CCCC3)n2)cc1
    -1.2	-0.6	65*	7	-1	3	1	1.3	19	50
[17] CCOC(=O)c1c(-c2ccccc2)oc2ccc(OCC(N)=O)cc12
    -0.6	1.5	0	-6	9	8	10	-0.5	1	-2
[18] Cc1nc(Sc2ccc(Cl)cc2)c(C#N)c(C)c1[N+](=O)[O-]
    -0.3	-1.6	36	1	-27	-20*	-1.5*	-6.4*	-21	2
[19] O=C(CC(=O)Nc1ccccc1C(=O)O)NNC(=O)Cc1ccccc1
    0.2	1.6	-5	2	3	9	2	-5.0	5	-3
[20] COc1ccccc1CN1C(=O)[C@H]2Cc3c([nH]c4ccccc34)C(C)(C)N2C1=O
    0.6	-0.7	17	-10	-12	-9	-16	-4.6	17	2

Next part:
Below each SMILES: Bfl-1 A1 inh	LANA-H2A inh	T cruzi repl	B2AR ag	ALR inh	rRNA inh HTS	rRNA inh HTS OD600	rRNA inh HTS RFP	Calb FLC	Beta cell apopt
[21] COc1cccc(C(=O)OCC(=O)c2c[nH]c3ccccc23)c1O
    -2.4	0.8	12	-1	-6	-7	7	-0.1	-20	-7
[22] Cc1nnc(Nc2ccc(C(=O)NCCO)cc2)c2ccccc12
    0.3	3.6	-5	-11	-6	·	·	·	-7	-1
[23] CS(=O)(=O)CCC(C(=O)O)N1C(=O)c2ccc(Oc3ccc(Cl)cc3)cc2C1=O (configuration not stated)
    2.3	3.9	-7	-6	-3	8	7	-1.4	-1	2
[24] COc1ccc(N2C(=NC(=O)CCC3CCCC3)SC3CS(=O)(=O)CC32)cc1 (configuration not stated)
    1.8	-6.3	10	2	-3	-8	-3	-4.7	3	-2
[25] Cc1ccccc1C(=O)NC(CC(C)C)C(=O)N1CCN(c2ccccc2)CC1 (configuration not stated)
    0.9	0.2	-5	-2	10	-1	4	-2.6	2	·
[26] CCCOc1ccc(-c2nnc(N)s2)cc1
    -1.2	13	-2	-7	-3	·	·	·	-2	-7
[27] CCOC(=O)C1CCN(CC(=O)Nc2cc(S(=O)(=O)N3CCOCC3)ccc2C)CC1
    0.0	-8.7	31	10	-17	14	16	6.2	4	-5
[28] Cc1ccccc1OCCNCC(C)O (configuration not stated)
    -0.6	5.2	-6	2	-4	10	8	-0.2	8	-4
[29] Cc1cc([N+](=O)[O-])nn1CCCC(=O)N1CCN(c2ccc(F)cc2)CC1
    0.0	0.0	-5	-3	55	·	·	·	-16	4
[30] CCC(=O)c1cc2c(C)cc(=O)oc2c(C)c1O
    -0.2	-1.5	-12	-7	-14	·	·	·	3	10
[31] Cc1ccc2nc(NC(=O)CN(C)S(=O)(=O)c3cccc4nsnc34)sc2c1
    0.6	0.4	4	0	0	·	·	·	3	25
[32] CCN(CC)CCC(c1cc(OC)c(OC)c(OC)c1)c1c(O)cc(OC)cc1OC (configuration not stated)
    -1.4	-4.7	-7	-1	28	13	11	1.1	-6	-2
[33] CCOC(=O)C1=C(C)N=C2SC(C(=O)OC)=CC(=O)N2C1c1cccc(OC)c1 (configuration not stated)
    -0.2	-1.7	12	3	-8	·	·	·	3	8
[34] Cc1cccc(NC(=O)CSc2ccc(C(N)=O)cc2[N+](=O)[O-])c1C
    0.3	3.2	-6	-11	0	13	7	5.3	-12	-1
[35] CSc1nc(O)c(C2OC(=O)c3ccccc32)c(=O)[nH]1 (configuration not stated)
    -0.2	-4.4	-3	8	-2	·	·	·	-6	-2
[36] Cc1ccc(NC(=O)Cc2sc(C)nc2-c2ccc(C)cc2)cc1
    0.5	-1.1	-8	-3	·	·	·	·	?	0
[37] CCN(CC)S(=O)(=O)c1cc(C(=O)Nc2ccc(Cl)cn2)ccc1C
    -1.3	-5.3	16	-6	-6	·	·	·	18	2
[38] CN(C)S(=O)(=O)N1CCN(C(=O)c2ccccc2)CC1
    -0.3	6.3	8	4	-1	·	·	·	-4	-3
[39] COc1ccccc1OCC(=O)NCC1CCCCC1
    0.2	-1.5	0	-6	-4	·	·	·	0	·
[40] C[C@H](NC(=O)C1CC(=O)N(c2ccc3c(c2)OCCO3)C1)C(=O)N1CCCCC1 (some centres not stated)
    1.4	16*	-10	-1	-4	8	2	0.4	3	-2

Limited to B2AR ag, LANA-H2A inh and Calb FLC, for some of the entries so far:
item | smiles | B2AR ag | LANA-H2A inh | Calb FLC
39 | COc1ccccc1OCC(=O)NCC1CCCCC1 | -6 | -1.5 | 0
22 | Cc1nnc(Nc2ccc(C(=O)NCCO)cc2)c2ccccc12 | -11 | 3.6 | -7
31 | Cc1ccc2nc(NC(=O)CN(C)S(=O)(=O)c3cccc4nsnc34)sc2c1 | 0 | 0.4 | 3
29 | Cc1cc([N+](=O)[O-])nn1CCCC(=O)N1CCN(c2ccc(F)cc2)CC1 | -3 | 0.0 | -16
23 | CS(=O)(=O)CCC(C(=O)O)N1C(=O)c2ccc(Oc3ccc(Cl)cc3)cc2C1=O (configuration not stated) | -6 | 3.9 | -1
25 | Cc1ccccc1C(=O)NC(CC(C)C)C(=O)N1CCN(c2ccccc2)CC1 (configuration not stated) | -2 | 0.2 | 2

The listing picks up, repeating the 3 entries before the break.
Below each SMILES: Bfl-1 A1 inh	LANA-H2A inh	T cruzi repl	B2AR ag	ALR inh	rRNA inh HTS	rRNA inh HTS OD600	rRNA inh HTS RFP	Calb FLC	Beta cell apopt
[38] CN(C)S(=O)(=O)N1CCN(C(=O)c2ccccc2)CC1
    -0.3	6.3	8	4	-1	·	·	·	-4	-3
[39] COc1ccccc1OCC(=O)NCC1CCCCC1
    0.2	-1.5	0	-6	-4	·	·	·	0	·
[40] C[C@H](NC(=O)C1CC(=O)N(c2ccc3c(c2)OCCO3)C1)C(=O)N1CCCCC1 (some centres not stated)
    1.4	16*	-10	-1	-4	8	2	0.4	3	-2
[41] COc1ccc(C2N(Cc3ccccc3)CCN2Cc2ccccc2)cc1[N+](=O)[O-]
    0.5	1.4	22	2	0	10	-11	5.0	12	-4
[42] O=C(COC(=O)Cc1cccc(C(F)(F)F)c1)Nc1ccc2c(c1)OCCO2
    0.1	146*	-1	12	-51	-3	3	-1.7	?	4
[43] Cc1cccc(NS(=O)(=O)c2ccc(C3CCCCC3)cc2)n1
    0.9	0.7	11	1	4	·	·	·	10	4
[44] COc1ccc(CCC(=O)Nc2sccc2C#N)cc1
    -7.6	-0.2	-8	·	-9	-8	-7	12	5	-6
[45] COc1ccc(Cl)cc1NC(=O)CCc1nnc2ccc(N3CCC4(CC3)OCCO4)nn12
    0.9	2.3	-4	2	-13	2	3	0.8	-2	4
[46] COc1cc2cnncc2cc1OC
    -0.1	-1.8	-3	-1	-37	·	·	·	-6	-6
[47] CS(=O)(=O)c1ccc(Cl)c(NC(=O)CSc2nc3ccccc3c(=O)n2Cc2ccco2)c1
    0.2	5.3	26	10	-3	2	6	-4.1	·	21
[48] Cc1ccc(S(=O)(=O)Nc2cnn(-c3ccccc3)c(=O)c2Cl)cc1
    1.8	4.1	-18	1	10	-16	-12	-5.5	-6	-2
[49] CN(C)S(=O)(=O)c1cc(NC(=O)CSc2ncc(C(F)(F)F)cc2Cl)ccc1Cl
    1.1	1.1	48	4	-5	·	·	·	-28	-2
[50] COc1ccccc1C(=O)N/C(=C\c1ccccc1)C(=O)NCc1ccco1
    -0.2	1.9	8	-8	·	6	4	0.2	-12	-3
[51] O=C(O)CC(Cc1ccc(Cl)cc1)C(=O)Nc1ccccc1 (configuration not stated)
    0.2	2.8	-6	9	-4	-5	-10	-2.4	3	-6
[52] CC(C)Cn1cc(C(=O)NCCCOC(C)C)c2c3ccccc3n(C)c2c1=O
    0.0	2.0	12	6	-14	·	·	·	-1	-10
[53] Cc1ccc(NC(=O)CN2CCOCC2)c(Br)c1
    -0.4	-0.1	-3	-3	-5	1	-7	-3.0	10	-3
[54] Cc1cc(C(=O)Nc2ccc(Br)cc2)cs1
    -7.3	-2.1	6	16	2	6	2	-6.3	-7	5
[55] CC(C)N(C(C)C)S(=O)(=O)c1ccc(N2CCc3ccccc3C2)nc1
    -0.3	0.9	41	5	·	-5	-19	1.6	12	5
[56] CN1CCN(NC(=O)c2ccc(Br)c(S(=O)(=O)N3CCOCC3)c2)CC1
    -0.1	2.2	-18	0	·	·	·	·	-4	-12
[57] Cc1ccc(N=Cc2c(O)n(-c3cc(Cl)ccc3N3CCOCC3)c(=O)c3ccccc23)cc1C
    -0.1	1.6	49	1	-9	·	·	·	13	20
[58] Cn1c(CSc2ccccc2)c(C#N)c2ccccc21
    -1.0	2.2	0	-6	-2	·	·	·	17	-2
[59] Cc1ccc(C(C)C)c(OC(=O)/C=C/c2ccccc2)c1
    -0.1	-2.3	-12	26	1	·	·	·	-46	4
